Cruzain noTriton: cruzain (T. cruzi) inhibition without detergent; purified cruzain, Z-FR-AMC fluorescence, no detergent; Potency, µM, for inactives: max response, negative = inhibition, usual class: inhibitors; 2.3% of 200,000 active; AID 1476;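 also: plate controls were enzyme without inhibitor for no effect and buffer without enzyme for full effect; nearly all actives have a fitted effect of over 40% in size; top concentration of the series not given in the record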
Target sequence (P25779 123-467 limits assumed): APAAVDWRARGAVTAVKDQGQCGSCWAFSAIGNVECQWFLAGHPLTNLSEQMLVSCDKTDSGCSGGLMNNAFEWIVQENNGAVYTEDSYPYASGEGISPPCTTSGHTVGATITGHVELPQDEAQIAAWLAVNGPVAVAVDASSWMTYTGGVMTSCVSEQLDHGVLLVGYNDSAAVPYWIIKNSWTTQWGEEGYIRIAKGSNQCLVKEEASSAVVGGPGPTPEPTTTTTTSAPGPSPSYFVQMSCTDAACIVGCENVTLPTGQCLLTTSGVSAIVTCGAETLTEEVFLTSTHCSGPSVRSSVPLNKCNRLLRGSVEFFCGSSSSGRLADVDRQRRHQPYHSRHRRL
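Detergent-free condition (0.00005% Triton X-100) in acetate buffer pH 5.5 with DTT. 1.5 nM enzyme and compound were pre-mixed 15 min, then 2 uM Z-FR-AMC substrate added; reaction progress from fluorescence change between first and third reads (60 s).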
2A StopGo: FMDV 2A StopGo reporter, luciferase signal; 1.2% of 410,000 active; Potency, µM (titrated, usually from 57.9 µM), for the others: at the top dose signal change, negative = less light; human cells with a luciferase reporter of 2A StopGo recoding; control for the full effect not named in the record; active = well fitted falling curve with a large enough effect; inconclusive = small, poorly fitted or top-dose-only effect; inactive = no such curve, though single readings can be large or run the other way; tested in HEK293T cells; also: % is scaled to controls: 0 for no effect and ±100 for the full control effect; nearly all actives have a fitted effect of over 45% in size; luciferase light after 4 h
SARS PLP yeast: blocks SARS-CoV papain-like protease in a yeast assay; S. cerevisiae expressing SARS-CoV PLpro, growth rescue; control for the full effect not named in the record; Potency, µM (series often up to 32.9 µM), for the others: at the highest dose activity, positive = growth rescue; 0.19% of 330,000 active; active means well fitted rising curve with a large enough effect; inconclusive means small, poorly fitted or top-dose-only effect; inactive means no such curve, though single readings can be large or run the other way; also: 0% is about no effect; nearly all actives have a fitted effect of over 55% in size; growth read by luminescence after 48 h
LASV entry inh: Lassa virus entry inhibition; Lassa virus pseudotype entry inhibition, cell reporter; control for the full effect not named in the record; Potency, µM (top dose mostly 37.9 µM), for the others: top-dose activity change, negative = inhibition, most hits filed as inhibitors; 1.2% of 300,000 active; active means well fitted inhibition curve with a large enough effect; inconclusive means small, poorly fitted or top-dose-only effect, or effect the other way; inactive means flat fitted curve, though single readings scatter; tested in HEK293 cells; also: % is scaled to controls: 0 for no effect and ±100 for the full control effect; nearly all actives have a fitted effect of over 50% in size; luciferase read-out
NS1 function inh: influenza NS1 inhibition | Potency, µM (series often up to 46.1 µM), inactives show top-dose activity, positive = more growth | 0.4% of 270,000 active | S. cerevisiae slowed by influenza A NS1, growth recovery by OD600 | AID 2326; active means well fitted rising curve with a large enough effect; inconclusive means small, poorly fitted or top-dose-only effect; inactive means no such curve, though single readings can be large or run the other way; also: nearly all actives have a fitted effect of over 50% in size
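OD600 was taken as the measure of yeast growth restored by compound in an NS1-expressing S. cerevisiae strain. Cells had been washed out of glucose medium and diluted 1:100 into galactose -URA medium, pH 6.0.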
Cruzain Triton: blocks cruzain activity in presence of Triton detergent. P25779. Potency, µM, for inactives: max response, negative = inhibition, hits mostly inhibitors. purified cruzain, Z-FR-AMC fluorescence, 0.01% Triton. 0.43% of 200,000 active;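 also: plate controls were neutral wells for no effect and buffer without enzyme for full effect; nearly all actives have a fitted effect of over 40% in size; top concentration of the series not given in the record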
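Z-FR-AMC hydrolysis (2 uM substrate) by cruzain (1.5 nM) monitored kinetically at ex 360/em 450 nm after 15 min room-temperature compound exposure; 0.01% Triton X-100, pH 5.5, 5 mM DTT.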
RE007 growth inh: less growth of the S. pombe RE007 Vpr strain | Potency, µM (doses to about 92.2 µM), inactives show at the top dose activity change, negative = less growth | 0.21% of 360,000 active | S. pombe RE007 Vpr strain, BacTiter-Glo ATP luminescence, 24 h; control for the full effect not named in the record | AID 651644; active = well fitted falling curve with a large enough effect; inconclusive = small, poorly fitted or top-dose-only effect; inactive = no such curve, though single readings can be large or run the other way;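 also: % is scaled to controls: 0 for no effect and ±100 for the full control effect; nearly all actives have a fitted effect of over 50% in size; the assay follows cell death caused by Vpr and the record does not say whether a fall means rescue or toxicity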
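Fission yeast RE007 carrying one integrated HIV-1 vpr copy, seeded at OD 0.01 in PMG+AL medium with 23 nL pinned compound. Grown 24 h at 30 degrees; viability read by BacTiter-Glo luminescence after 5 min.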
MARV entry inh: inhibitors of Marburg virus binding or cell entry; Marburg virus pseudotyped entry inhibition, cell reporter; control for the full effect not named in the record; about a third of the inactives were read at about 46 µM; Potency, µM (series often up to 37.8 µM), inactives show at the top dose activity change, negative = inhibition, actives largely listed as inhibitors; 1.8% of 300,000 active; active = well fitted inhibition curve with a large enough effect; inconclusive = small, poorly fitted or top-dose-only effect, or effect the other way; inactive = flat fitted curve, though single readings scatter; tested in HEK293 cells; about a fifth of its hits are not listed in these tables; also: % is scaled to controls: 0 for no effect and ±100 for the full control effect; luciferase read-out
Numbers without * were called inactive; ? = inconclusive; . = not tested or not shown; & = joins results of further samples; [ ] = remark or other dose. Unless noted, calls follow the shape of the dose curve; as a rule, active = well fitted curve in the direction sought with a large enough effect; inconclusive = small, poorly fitted or top-dose-only effect, or another doubt; inactive = no such curve, though single readings can be large; an effect the other way counts as inactive or inconclusive. Potency is read from the fitted curve at half-maximal effect.

SMILES | Cruzain noTriton | 2A StopGo | SARS PLP yeast | LASV entry inh | NS1 function inh | Cruzain Triton | RE007 growth inh | MARV entry inh
Cc1onc(-c2c(F)cccc2Cl)c1C(=O)NCC1COc2ccccc2O1 (stereo unspecified) | 4% | -27% | 4% | 18% | -55% | -4.8% | -3% | ?
CCCCSc1nc(C)c(C(C)=O)cc1C#N | -1% | -24% | -2% | 19% | -206% | -2.7% | -23% | 5%
C/C(=N\NC(=S)NCc1ccccc1)c1ccc(Br)cc1 | . | -1% | -10% | ? | . | . | -19% | 24%[46.1 µM]
CCCN(CC(=O)Nc1ccccc1OC)C(=O)c1cnc(Cl)c(Cl)c1 | . | 2% | -1% | 26%[46.1 µM] | -9% | . | -2% | -4%[46.1 µM]
CCO[C@@H]1OC(C(=O)N2CCN(Cc3ccccc3)CC2)=C[C@H](c2cn(C(C)=O)c3ccccc23)[C@H]1CCCO | . | 0% | 1% | . | -14% | . | 1% | .
O=C(CCCc1ccccc1)c1ccccc1 | . | 3% | -15% | . | 1% | . | 10% | ?
COc1ccc(CC2(CO)CCN(CC3=Cc4cc(Cl)ccc4OC3)CC2)cc1 | . | ? | 1% | ? | -7% | . | -22% | ?
COc1ccc(NS(=O)(=O)c2ccc(C)c(C(=O)N(C)CCc3ccc(OC)c(OC)c3)c2)cc1 | . | -23% | -10% | ? | . | . | 5% | -10%
COc1ccc(-c2nnc(COc3ccc4ccccc4c3)o2)cc1OC | ? | -19% | -3% | 21µM* | -53% | -4.2% | 1% | ?
CCOC(=O)c1csc(N)c1-c1ccc([N+](=O)[O-])cc1 | . | -16% | -6% | . | 2% | . | -6% | .
O=C(COC(=O)c1ccc(S(=O)(=O)N2CCCC2)cc1)Nc1ccc(F)cc1F | . | -3% | -2% | 6%[46.1 µM] | . | . | 9% | -1%[46.1 µM]
CCC(=O)NC(C)C(c1cccs1)N1CCN(Cc2ccccc2)CC1 (stereo unspecified) | -3% | -20% | -3% | . | 11% | 2.7% | -11% | .
COc1ccccc1-c1nnc(NC(=O)C(C)SC2=NCCS2)s1 (stereo unspecified) | 16µM* | -29% | -4% | . | -69% | -5.3% | -6% | .
Fc1cccc(Cc2noc(CN3CCCCC3CCc3ccccn3)n2)c1 (stereo unspecified) | . | -14% | -1% | -27%[46.1 µM] | -8% | . | -4% | ?
COc1ccc2ccccc2c1/C=N/NC(=O)c1ccc([N+](=O)[O-])cc1 | . | 21% | -1% | -21% | 1% | . | -1% | 8%
Clc1ccc(/C=C/c2ncc3ccccn23)cc1 | . | 1% | -1% | -13% | -32% | . | ? | ?
Cn1c(SCC(=O)N2CCN(C(=O)c3ccco3)CC2)nnc1-c1ccc(NS(C)(=O)=O)cc1 | . | 13% | 1% | 2%[46.1 µM] | -4% | . | 34% | 9%
CCOC(=O)c1nc(NCc2cccc(OC)c2)c2ccccc2n1 | . | -15% | 1% | . | -6% | . | 0% | .
N#CC1=C(N)Oc2cc(O)ccc2C1c1ccncc1 (stereo unspecified) | -5% | 0% | 6% | 16% | -6% | 2.7% | 9% | ?
CC(=O)c1cccc(NC(=S)Nc2ccc(F)cc2)c1 | . | 44%[activator] | -1% | . | 0% | . | 7% | .
Cc1cc(C)nc(N2CCCC(C(=O)NCCC3=CCCCC3)C2)n1 (stereo unspecified) | -18% | -3% | 6% | 37%[14.3 µM] | -8% | -2.2% | -1% | -10%
Cc1ccc(S(=O)(=O)N(C)CC(=O)OCC(=O)NCCc2ccc(S(N)(=O)=O)cc2)cc1 | . | 1% | 0% | 22%[46.1 µM] | . | . | 6% | ?
O=c1[nH]c2cc3c(cc2cc1CN(CCc1ccccc1)Cc1nnnn1C1CCCC1)OCCO3 | 14% | . | 0% | . | -32% | -6.4% | . | -3%
O=C(Cn1nnc(-c2ccccc2)n1)Nc1ccc2c(c1)OCO2 | ? | -16% | -3% | 0% | 5% | 0.9% | -16% | 1%
CC1CCCCN1S(=O)(=O)c1cc2c(=O)nc3ccccn3c2cc1Cl (stereo unspecified) | -7% | -13% | . | -26%[46.1 µM] | . | 3.2% | . | .

Complete entries as entered above. Order of screens: Cruzain noTriton	2A StopGo	SARS PLP yeast	LASV entry inh	NS1 function inh	Cruzain Triton	RE007 growth inh	MARV entry inh
O=C(COC(=O)c1ccc(S(=O)(=O)N2CCCC2)cc1)Nc1ccc(F)cc1F reads .	-3%	-2%	6%[46.1 µM]	.	.	9%	-1%[46.1 µM]
Cc1cc(C)nc(N2CCCC(C(=O)NCCC3=CCCCC3)C2)n1 (stereo unspecified) reads -18%	-3%	6%	37%[14.3 µM]	-8%	-2.2%	-1%	-10%
CC(=O)c1cccc(NC(=S)Nc2ccc(F)cc2)c1 reads .	44%[activator]	-1%	.	0%	.	7%	.

More structures follow:
SMILES | Cruzain noTriton | 2A StopGo | SARS PLP yeast | LASV entry inh | NS1 function inh | Cruzain Triton | RE007 growth inh | MARV entry inh
Cc1ccccc1CN1CCN(Cc2ccccc2C(F)(F)F)CC1 | -5% | -18% | -10% | ? | 11% | -1.5% | -4% | 4%
CN(C(=O)COC(=O)c1ccc(=O)n(Cc2ccccc2)n1)c1ccccc1 | . | 6% | 0% | 2% | 2% | . | -1% | 6%
CCOC(=O)N1CCN(C(=O)COC(=O)CSc2ccc([N+](=O)[O-])cc2)CC1 | . | 2% | 5% | 17% | . | . | -4% | -2%
Cn1c(=O)n(C)c2cc(N3CCCCC3)c(NC(=O)Nc3ccc(Br)cc3)cc21 | -6% | -12% | . | -10%[46.1 µM] | . | -1.4% | . | ?
C#CCSc1n[nH]c(-c2ccco2)n1 | -6% | 16% | -2% | . | -5%&-4% | -0.5% | -3% | .
CC(C)NC(=O)N1[C@H](c2cccs2)[C@@H](C)C(=O)[C@@H](C)[C@@H]1c1cccs1 | 15% | -5% | . | 29%[46.1 µM] | . | -1.6% | . | 5%[46.1 µM]
Cc1ccsc1C1C(C(=O)O)c2ccccc2C(=O)N1C (stereo unspecified) | -1% | -2% | -3% | 4% | 5% | 3.0% | 16% | ?
O=C1CCCC2=C1C(c1ccco1)Nc1ccc3ccccc3c12 (stereo unspecified) | -11% | -8% | 2% | -8% | -18% | -21% | -11% | -4%
COc1cccc(-c2nc(CS(=O)(=O)CC(=O)NCc3ccccc3)c(C)o2)c1 | 15% | -22% | 7% | -1% | -23% | -1.6% | 1% | 1%
CCN(CC)c1c([N+](=O)[O-])c(=O)sc2ccccc12 | 7% | 37%[activator] | 2% | ? | -7% | -3.0% | -13% | 14%
COc1cc(C(=O)NCC2CCCN2S(=O)(=O)c2cccs2)cc(OC)c1OC (stereo unspecified) | . | -4% | -2% | -4% | . | . | 9% | 3%[46.1 µM]
Cn1c(Cc2cccs2)nnc1SCC(=O)Nc1ccccc1F | . | -9% | 0% | 12% | . | . | 30% | 0%
COc1ccc(S(=O)(=O)N2CCCCC2)cc1NC(=O)Cc1cccs1 | . | 18% | 0% | ? | . | . | 1% | 1%
COC(=O)C1=C(CS(=O)(=O)c2ccc(OC)c(OC)c2)NC(=O)NC1c1ccc(O)c(OC)c1 (stereo unspecified) | . | -1% | ? | 18%[46.1 µM] | -9% | . | 1% | ?
CCc1c(C(=O)Nc2nnc(C3CC3)s2)csc1C | ? | 33% | 1% | 36%[14.3 µM] | -7% | 8.9% | 3% | 27%
CCC1=C(C)CN(C(=O)NCCc2ccc(S(=O)(=O)NC(=O)NC3CCC(C)CC3)cc2)C1=O (stereo unspecified) | 1%&-10% | 16%&21% | . | . | . | -1.6%&-3.2% | 8%[18.4 µM] | .
CC1=C(C(=O)N2CCN(c3ccc(Cl)cc3)CC2)C2(CCC(C)CC2)OC1=O (stereo unspecified) | 16% | -22% | . | -17%[46.1 µM] | . | 1.3% | . | ?
Cc1ccc(-n2nnnc2CN2CCCCC2)cc1 | . | -1% | 0% | 11% | 12% | . | 3% | -10%[46.1 µM]
COc1ccc(-n2c(SCC(=O)Nc3nccs3)nc3sc4c(c3c2=O)CCN(C)C4)cc1 | ? | -18% | -5% | 4% | ? | -8.0% | 0% | -21%&-21%
CCOc1ccc(C2CC(=O)NC3=C2C(=O)CCC3)cc1 (stereo unspecified) | 2% | -15% | 6% | 0% | -11% | 3.3% | 1% | ?
O=C(COC(=O)/C=C/c1ccc(Cl)cc1)Nc1ccc2[nH]c(=O)[nH]c2c1 | . | -20% | -7% | -10% | . | . | 1% | ?
CCn1cc(C(=O)O)c(=O)c2cc(F)c(N3CCN(C(=S)NC(=O)c4ccccc4F)CC3)cc21 | . | -11% | 0% | 13% | 2% | . | -5% | -17%[46.1 µM]
CCC(=O)Nc1ccc(C(=O)CSc2nc3ccccc3cc2CC)cc1 | 2% | . | -4% | ? | -1% | -6.1% | 10% | ?
O=C(c1cc2ccccc2oc1=O)N(Cc1ccc(F)cc1)C1CCS(=O)(=O)C1 (stereo unspecified) | . | 98%[activator] | 2% | . | -7% | . | 3% | .
COc1ccc(NC(=O)CCCCn2c(=O)[nH]c3ccccc3c2=O)cc1 | -7% | 18% | -2% | -12% | 6% | 6.5% | 22% | -36%[46.1 µM]
Cc1nc(-c2cccc(NC(=O)Cc3ccccc3)c2)cs1 | . | 30% | -2% | ? | . | . | -4% | 18%[46.1 µM]
O=C(CCCc1ccccc1)Nc1nccs1 | . | 35%[activator] | . | 0% | . | . | 23% | ?
N#Cc1cn(CC(=O)O)c2ccccc12 | -12% | 3% | 1% | . | 2% | 1.6% | . | 0%
CCOC(=O)NC(=O)CSc1ccc2ccccc2n1 | . | 4% | 1% | 11%[46.1 µM] | . | . | 5% | 36%[46.1 µM]
COc1ccc(CCNC(=O)C2CCCN(C(=O)c3ccc(Cl)cc3)C2)cc1 (stereo unspecified) | . | 9% | -1% | 13%[46.1 µM] | 5% | . | 5% | -3%[46.1 µM]

Of the compounds above, these contain bromine:
SMILES | Cruzain noTriton | 2A StopGo | SARS PLP yeast | LASV entry inh | NS1 function inh | Cruzain Triton | RE007 growth inh | MARV entry inh
C/C(=N\NC(=S)NCc1ccccc1)c1ccc(Br)cc1 | . | -1% | -10% | ? | . | . | -19% | 24%[46.1 µM]
Cn1c(=O)n(C)c2cc(N3CCCCC3)c(NC(=O)Nc3ccc(Br)cc3)cc21 | -6% | -12% | . | -10%[46.1 µM] | . | -1.4% | . | ?

Screening data as filed in PubChem BioAssay.
